AmpC nodet inh = Promiscuous and Specific Inhibitors of AmpC Beta-Lactamase (assay without detergent) | Potency, µM (doses to about 28.7 µM), for the others: at the highest dose activity change, negative = inhibition | P00811 | hit rate 1.8% among 71,000 | AmpC nitrocefin hydrolysis, absorbance 480 nm, no detergent; potencies from a single point are estimates | AID 585, 2007; active = falling curve, for most hits resting on a single point; inconclusive = weak or doubtful change; inactive = flat or rising curve; also: % of control where 0% means no effect; about half of the hits show no inhibition at the top dose; a quarter of the inactives give rising signals
Target sequence (P00811 whole entry, looked up): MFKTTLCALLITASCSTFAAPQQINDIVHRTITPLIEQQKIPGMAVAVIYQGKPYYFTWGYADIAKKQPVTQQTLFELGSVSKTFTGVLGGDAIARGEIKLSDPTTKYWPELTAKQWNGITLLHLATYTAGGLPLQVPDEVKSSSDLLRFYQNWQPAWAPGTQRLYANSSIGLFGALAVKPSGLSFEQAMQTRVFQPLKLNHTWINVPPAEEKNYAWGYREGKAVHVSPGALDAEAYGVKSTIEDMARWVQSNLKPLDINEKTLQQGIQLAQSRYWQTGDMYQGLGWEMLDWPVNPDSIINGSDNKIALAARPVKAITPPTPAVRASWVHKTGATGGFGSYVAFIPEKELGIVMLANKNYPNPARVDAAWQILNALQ
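AmpC, 20 mM phosphate pH 7.0; 15 min cpd preinc, RT; start with nitrocefin (800 uM stock); A480 kinetic read, 20 s intervals, 4 min. No-enzyme wells = negative control.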
* hit, by the source's call; ? = inconclusive; [ ] = remark or other dose. Potency is read from the fitted curve at half-maximal effect. Some of the compounds tested; the hit share may differ from the screen's.

SMILES | AmpC nodet inh
COC(=O)[C@H](Cc1ccccc1)NC(=O)[C@]1(C)C[C@H]1[C@H](NC(=O)OCc1ccccc1)c1ccccc1 | 52.5%
O=C(NCc1ccco1)c1noc2c1CCCC2 | 3.2%
O=Nc1ccc2oc(=O)ccc2c1 | 0.6%
COc1ccc(-n2c(=O)cnc3cnc(Oc4ccccc4)nc32)cc1 | 23.4%
CC(=O)N1CCc2cc(S(=O)(=O)CCC(=O)NCc3cccs3)ccc21 | -4.2%
COc1cc(C(=O)Oc2ccccc2)ccc1OCc1c(C)noc1C | -3.4%
Cc1cc(=O)oc2cc(OCC(=O)NCCCN3CCOCC3)ccc12 | -6.3%
CCS(=O)(=O)N1Cc2ccccc2CC1C(=O)N1CCN(c2ccccc2)CC1 (centres undefined) | 43.0%
COc1cccc2[nH]c3c(N4CCCC(C)C4)ncnc3c12 (centres undefined) | 2.9%
CCOc1ccc2c(c1)c1nnc(SCC(=O)N3CCC(C)CC3)nc1n2C | 79.1%
Cc1csc(SCCN2C(=O)c3ccccc3C2=O)n1 | 2.5%
Cc1c2c(nc3nc4ccccc4n13)CCCC2=O | -5.6%
CS(=O)(=O)N1CCC2(CCN(C(=O)Nc3cccc(F)c3)CC2)CC1 | -3.9%
Cc1nc(COC(=O)c2ccc(CO)cc2)cs1 | -3.7%
Cc1cc(C)cc(OCc2nnc(SCC(=O)c3ccccc3)o2)c1 | -7.3%
CCN1CCCC1CNC(=O)CS(=O)(=O)Cc1nc(-c2ccccc2C)oc1C (centres undefined) | 74.2%
Cn1c(=O)oc2cc(S(=O)(=O)NCc3ccco3)ccc21 | -4.2%
COc1cccc(C2=NO[C@@H]3C(=O)N(c4ccc5c(c4)OCCO5)C(=O)[C@H]23)c1OC | 8.2%
CS(=O)(=O)Nc1cccc(C(=O)CC2(O)C(=O)Nc3ccccc32)c1 (centres undefined) | 2.5%
Cc1ccc(Cn2ncc3c(NCCCN4CCOCC4)ncnc32)cc1 | 40.7%
CCNC(=O)N1c2ccc(OC)cc2C(C)=CC1(C)C | 14.3%
NC(=O)NC(=O)[C@H]1CCCC[C@@H]1C(=O)O | 4.2%[5.75 µM]
O=C(NCc1cccnc1)c1cccc(S(=O)(=O)N2CCCCC2)c1 | 3.8%
Cc1ccccc1-c1nc(CS(=O)(=O)CC(=O)NCCCN2C(C)CCCC2C)c(C)o1 (centres undefined) | 63.4%
Nc1c(NCCN2CCOCC2)c2ccccc2oc1=O | -0.5%
Oc1ccc(-c2cccc(-c3ccc(O)cc3)n2)cc1 | -17.6%
CC1CCCC(C)N1C(=O)C1CC(c2ccc(F)cc2)=NO1 (centres undefined) | 23.0%
COc1ccc(-c2nc3cnc(OC)nc3n(-c3ccc(OC)cc3)c2=O)cc1 | 8.9%
O=C(O)CBr | 1.2%
CCCCOc1ccccc1-c1cc(C(=O)O)[nH]n1 | ?
CSc1ccc(C2C3(C#N)C(N)=NC4(OCCO4)C23C#N)cc1 (centres undefined) | 12.2%
Cc1ccc(C(C)C)c(OCC(=O)Nc2ccc(Cl)cn2)c1 | -7.9%
c1coc(CN=C2NC(=NCc3ccco3)c3ccccc32)c1 | 25.1%
CC(=O)c1ccc(NS(=O)(=O)Cc2ccccc2)cc1 | -10.8%
CCOc1cc(C(=O)N2CCOCC2)ccc1OCc1ccccc1 | -14.3%
CC(=C/C=C/C(C)=C/C=C/C=C(C)/C=C/C=C(C)/C=C/C(=O)O)/C=C/C(=O)O | 92.4%
O=C(c1cc2ccccn2n1)N1CCN(c2ccccn2)CC1 | 2.9%
Cn1c(SCc2ccc(Br)cc2)nnc1-c1ccncc1 | 18.5%
NS(=O)(=O)c1cc([C@@]2(O)NC(=O)c3ccccc32)ccc1Cl | 9.3%[12.8 µM]
O=C(Nc1cc(C(F)(F)F)ccc1N1CCCC1)c1ccc2c(c1)OCO2 | -4.2%
CCCCOC(=O)c1cc(=O)[nH]c2ccccc12 | -4.5%
O=C(c1csnn1)N1CCC[C@@]2(CCN(Cc3nccs3)C2)C1 | 29.9%
FC(F)(F)c1cccc(-c2nnc3ccc(C(F)(F)F)cn23)c1 | 14.6%
COC(=O)c1cncn1C(C)c1ccccc1 (centres undefined) | -1.5%
COCCN1C(=O)c2ccc(C(=O)O)cc2C1=O | 0.5%
O=C(CCN1CCN(c2ccc(F)cc2)CC1)Nc1ccc(F)cc1 | 12.1%
N#Cc1nc(-c2ccco2)oc1N1CCN(C(c2ccccc2)c2ccccc2)CC1 | 10.7%
NC(=O)SCC(=O)Nc1cccc(Cl)c1 | 7.94µM*
COc1cccc(NC=C2C(=O)OC3(CCCCC3)OC2=O)c1 | 15.9%
Nc1cccc(C(=O)Nc2ccc3nc(-c4cccnc4)[nH]c3c2)c1 | -7.8%
CCCc1nnc(NC(=O)NCCN2C(=O)C3C4C=CC(C4)C3C2=O)s1 (centres undefined) | 3.98µM*[single pt active]
C=CCO[C@@H](Cn1ccnc1)c1ccc(Cl)cc1Cl | 21.6%[12.8 µM]
CC1CCN(C(=O)CCCOc2cc(=O)n(C)c3ccccc23)CC1 | 90.5%
CCc1nc(NCc2ccco2)c2oc3ccccc3c2n1 | 22.2%
CCOc1ccc(CSC2=NCCN2)cc1Cl | -5.0%
CN(CC(=O)N1CCCCCC1)S(=O)(=O)c1cccc2cccnc12 | 3.7%
CNc1cc(NS(=O)(=O)c2ccc(N)cc2)nc(NC)n1 | 10.9%
COc1ccc(NC(=O)c2ccc(-c3ccc(-c4noc(C)n4)cc3C)cc2)cc1OCCN(C)C | 161.0%
O=C(CSCc1cccc(Br)c1)N1CCOCC1 | 12.8%
O=C(CSc1nnc(-c2ccccc2)o1)n1c2c(c3ccccc31)CCCC2 | 9.9%
Later entries:
SMILES | AmpC nodet inh
COc1ccc(C(=O)Nc2ccccc2C(N)=O)cc1 | -4.2%
COc1ccc(CNC(=O)c2c(O)c3cccc4c3n(c2=O)CCC4)cc1 | 8.2%
Cc1c(NC(=O)C(C)N2C(=O)C3C4C=CC(C4)C3C2=O)c(=O)n(-c2ccccc2)n1C (centres undefined) | -7.5%
Cc1onc(-c2ccccc2)c1C(=O)Nc1ccncc1 | -8.1%
COc1ccc(OC)c(C2CC(=O)N3CN(c4cccc(Cl)c4C)CSC3=C2C#N)c1 (centres undefined) | 3.98µM*[single pt active]
ClCC[N+]12CC[N+](CCCl)(CC1)C2 (tested in a mixture with another compound) | 3.5%[5.75 µM]
Cc1ccc(S(=O)(=O)CCc2nnc(NC(=O)c3cnccn3)s2)cc1 | 49.3%
COCCCNC(=O)CS(=O)(=O)Cc1nc(-c2cccc(OC)c2)oc1C | 28.4%
O=C(C1=COCCO1)N1CCN(C(c2ccccc2)c2ccccc2)CC1 | 104.2%
O=C(CSc1ncn[nH]1)OCN1C(=O)c2ccccc2C1=O | 2.3%
CCn1c(COc2ccccc2C)nnc1SCC(=O)OC | 52.2%
O=C(C1CCN(S(=O)(=O)Cc2ccccc2)CC1)N1CCCc2ccccc21 | 50.8%
O=C1C(c2ccncc2)=C(O)c2ccccc21 | -12.9%
Nc1ncnc2c1ncn2[C@H]1CC[C@@H](CO)O1 | -5.6%
COc1ccc(NC(=O)N2c3ccccc3CC2C)cc1OC (centres undefined) | 18.6%
Cc1oc(-c2ccccc2F)nc1CN1CCC(C(=O)NCc2ccco2)CC1 | 32.1%
Nc1nc(SCc2ccccc2Cl)cc(C(=O)O)n1 | -3.0%[5.75 µM]
CCOC(=O)C1CCN(C(=O)c2ccccc2Oc2ccccc2)CC1 | 65.9%
COc1cc(OC)c(S(=O)(=O)N2CCCCC2)cc1S(=O)(=O)N1CCCCC1 | 43.9%
c1cc2c(cc1[C@H]1OC[C@H]3[C@@H]1CO[C@H]3c1ccc3c(c1)OCO3)OCO2 | 6.0%
CCOC(=O)C1CCN(c2nc3cc(OC)ccc3cc2C#N)CC1 | 66.6%
CN(C)CCCOC(=O)c1cc2ccccc2o1 | -11.1%
COCCn1c(=S)[nH]c2ncccc2c1=O | -8.5%
CCCCn1nnc(NC(=O)c2ccc(-c3ccccc3)cc2)n1 | -6.3%
CCOC(=O)Nc1sc(=S)n(C)c1C | 9.6%
CCOC(=O)c1c(NC(=O)c2cc(C3CC3)on2)sc2c1CCCC2 | -2.5%
CC(NC(=O)c1cncc(Br)c1)c1ccc(S(N)(=O)=O)cc1 (centres undefined) | -13.9%
CCC1CCCCN1C(=O)CSc1nnc(CNC(=O)c2cc(OC)c(OC)c(OC)c2)o1 (centres undefined) | 40.9%
COc1cc(-c2nnc(SCc3cccnc3)n2C)cc(OC)c1O | -1.6%
COc1ccccc1OCc1ccc(C(=O)NCc2ccco2)o1 | 6.7%
Cc1ccccc1NC(=O)c1ccccc1NC(=O)c1ccco1 | 6.5%
COc1cc(O)c2c(=O)cc(-c3ccccc3)oc2c1 | -1.7%
COc1ccc(-c2cc(C(F)(F)F)n3nc(C(=O)O)cc3n2)cc1OC | -5.9%
Cc1cccc(NC(=O)c2sc3nc(-c4ccc(F)cc4)cn3c2C)n1 | 67.0%
COC(=O)c1sc(NC(=O)CSc2nnc(C(C)C)n2C)nc1C | 10.6%
CCOC(=O)N1CCN(S(=O)(=O)c2ccc3c(c2)CCN3C(=O)C2CC2)CC1 | 67.1%
CCCCCn1c(=S)[nH]c2ncccc2c1=O | -7.5%
CNC(=O)[C@@H]1O[C@@H](n2cnc3c(N)ncnc32)[C@@H](O)[C@H]1O | 7.2%
CC(C)N1C(=O)C2C(c3ccccc3O)NC(C)(C(=O)O)C2C1=O (centres undefined) | 3.9%
O=C(Cc1ccccc1)N1CCCC1c1ccccc1 (centres undefined) | 19.0%
O/N=C1/CCc2nonc2/C1=N/O | -3.2%
CCOC(=O)CSc1nnc([C@H](C)NC(=O)OC(C)(C)C)o1 | -9.7%
CCOC(=O)c1cc(=O)n2nc(-c3ccc(C)cc3)nc2s1 | 1.1%
C/C(N)=N\S(=O)(=O)c1ccc(Cl)cc1 | -3.6%
CC(CCc1ccco1)NC(=O)Cn1ncc2c1-c1ccccc1OC2 (centres undefined) | 54.8%
COc1cc2c(cc1OC)CN(C(=O)COc1ccc(C#N)cc1)CC2 | 16.0%
Clc1ccc(-n2nnnc2SCc2c(-c3ccccc3)nc3sccn23)cc1 | 12.6µM*
Clc1ccccc1NN(Cc1ccncc1)c1ccccc1Cl | 13.2%[5.75 µM]
Cn1c(CC2C(=O)Nc3ccc(Br)cc32)nc2ccccc2c1=O (centres undefined) | 66.5%
C=CCNc1nc(-c2sc(NC(=O)CC)nc2C)cs1 | -8.1%
Cc1nc(S(=O)(=O)N(C)c2ccccc2)c(C#N)c(C)c1Cl | -6.0%
COc1cc2c(cc1OC)C(c1cccnc1)CC(=O)N2 (centres undefined) | -2.8%
COc1cc(OC)c(C2CC(=O)N3CN(c4ccccc4C)CSC3=C2C#N)cc1OC (centres undefined) | 13.7%
O=C(Nc1c(Cl)cc(Cl)cc1C(=O)NCC1CCCO1)c1ccco1 (centres undefined) | 0.5%
C=C(C)Cn1c(N(CCO)Cc2ccccc2)nc2c1c(=O)[nH]c(=O)n2C | 25.3%
O=C(NCCCN1CCN(Cc2ccccc2Cl)CC1)Nc1ccccc1 | 9.7%
O=C(CCc1nc2ccccc2s1)OCC(=O)N1CCN(C(=O)c2ccco2)CC1 | 55.9%
CC(C)CNC(=O)C1CCN(c2ccc(S(=O)(=O)N3CCOCC3)cc2Cl)CC1 | 77.8%
O=C(CSc1nc(-c2ccco2)cc(C(F)(F)F)n1)N1CCN(Cc2ccccc2)CC1 | 148.2%
COC(=O)C1=C(C)n2nnnc2NC1c1ccc(Cl)cc1 (centres undefined) | -2.7%
Other results follow:
SMILES | AmpC nodet inh
Cn1c(Cn2c(=O)sc3ccccc32)nnc1SCC(=O)NC1CCCC1 | 3.2%
CCc1ccc(C2CC(c3ccc(F)cc3)Nc3nc(N)nn32)cc1 (centres undefined) | 34.0%
O=C(CCCc1ccccc1)NCc1cn2ccsc2n1 | 1.3%
CCOC(=O)C1CCN(S(=O)(=O)c2cc(Br)cc3c2N(C(=O)C2CC2)CC3)CC1 | 103.7%
Cc1ccc(NCc2nnc(SCC(=O)Nc3ncc(C)s3)n2Cc2ccco2)c(C)c1 | 37.2%
Cc1ccc(C)c(S(=O)(=O)n2cnc3ccccc32)c1 | 27.1%
Nc1nc(N2CCN(C/C=C/c3ccccc3)CC2)nc2ccccc12 | 33.4%

In a second layout: results already given.
| compound | AmpC nodet inh |
| --- | --- |
| Clc1ccccc1NN(Cc1ccncc1)c1ccccc1Cl | 13.2%[5.75 µM] |
| Cn1c(CC2C(=O)Nc3ccc(Br)cc32)nc2ccccc2c1=O (centres undefined) | 66.5% |
| C=CCNc1nc(-c2sc(NC(=O)CC)nc2C)cs1 | -8.1% |
| Cc1nc(S(=O)(=O)N(C)c2ccccc2)c(C#N)c(C)c1Cl | -6.0% |
| COc1cc2c(cc1OC)C(c1cccnc1)CC(=O)N2 (centres undefined) | -2.8% |
| COc1cc(OC)c(C2CC(=O)N3CN(c4ccccc4C)CSC3=C2C#N)cc1OC (centres undefined) | 13.7% |
| O=C(Nc1c(Cl)cc(Cl)cc1C(=O)NCC1CCCO1)c1ccco1 (centres undefined) | 0.5% |
| C=C(C)Cn1c(N(CCO)Cc2ccccc2)nc2c1c(=O)[nH]c(=O)n2C | 25.3% |
| O=C(NCCCN1CCN(Cc2ccccc2Cl)CC1)Nc1ccccc1 | 9.7% |
| O=C(CCc1nc2ccccc2s1)OCC(=O)N1CCN(C(=O)c2ccco2)CC1 | 55.9% |
| CC(C)CNC(=O)C1CCN(c2ccc(S(=O)(=O)N3CCOCC3)cc2Cl)CC1 | 77.8% |
| O=C(CSc1nc(-c2ccco2)cc(C(F)(F)F)n1)N1CCN(Cc2ccccc2)CC1 | 148.2% |
| COC(=O)C1=C(C)n2nnnc2NC1c1ccc(Cl)cc1 (centres undefined) | -2.7% |
| Cn1c(Cn2c(=O)sc3ccccc32)nnc1SCC(=O)NC1CCCC1 | 3.2% |
| CCc1ccc(C2CC(c3ccc(F)cc3)Nc3nc(N)nn32)cc1 (centres undefined) | 34.0% |
| O=C(CCCc1ccccc1)NCc1cn2ccsc2n1 | 1.3% |
| CCOC(=O)C1CCN(S(=O)(=O)c2cc(Br)cc3c2N(C(=O)C2CC2)CC3)CC1 | 103.7% |

Screens as filed in PubChem.
